miR-21 FLuc – miR-21 reporter, rising signal. HeLa miR-21 FLuc reporter, luciferase, 48 h. Potency, µM (series often up to 38.3 µM), for inactives: at the top dose reporter change, positive = more light. 340,000 tested, under 10 active; active = well fitted rising curve with a large enough effect; inconclusive = small, poorly fitted or top-dose-only effect; inactive = no such curve, though single readings can be large or run the other way;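 also: % of control where 0% means no effect; miR-21 action dims this reporter so a rising signal means less miR-21 action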
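Luminescence from a firefly luciferase reporter carrying a miR-21 binding site downstream, stably expressed under a CMV promoter in HeLa cells that make miR-21 endogenously, reports miRNA modulation after 48 h compound exposure up to approximately 40uM final.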
Rango complex inh – inhibitors of Rango-importin beta complex formation; 340,000 tested, 0.031% active; Potency, µM (titrated, usually from 92.2 µM), without a hit: at the top dose inhibition of complex formation; Rango CFP/YFP FRET sensor + importin beta, 45 min; active = rising FRET ratio curve, often small or poorly fitted; inconclusive = mostly compound fluorescence or quenching in the first reads; inactive = flat curves in all reads;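 also: potency is read from the fitted curve at half-maximal effect; 0% = DMSO wells and 100% = buffer wells lacking importin beta; nearly all actives have a fitted effect of over 15% in size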
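FRET biosensor Rango (snurportin 1 IBB between N-terminal EYFP and C-terminal Cerulean), 50 nM in PBS/1 mM DTT/0.02% Tween-20/0.1% BSA, preincubated 5 min RT with compound; 0.125 microM importin beta added, 45 min RT, CFP/YFP FRET ratio read.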
Rango dissoc inh – prevents RanGTP from dissociating the Rango-importin beta complex; O95149+P62826; Biochemical FRET Rango-importin beta, RanGTP-induced dissociation; Potency, µM (titrated, usually from 46.1 µM), inactives show top-dose activity change, negative = inhibition; 340,000 tested, 0.071% active; AID 540253; active means falling FRET ratio curve, often poorly fitted, with flat reads before Ran was added; inconclusive means other falling curves, or compound fluorescence or quenching; inactive means flat or rising ratio curve;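 also: potency is read from the fitted curve at half-maximal effect; % of control where 0% means no effect; nearly all actives have a fitted effect of over 45% in size; -100% = wells without RanGTP and RCC1; the record marks most hits as doubtful in a second field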
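Rango/importin beta premix (0.1/0.25 uM final), PBS + 1 mM DTT + 0.02% Tween-20 + 0.1% BSA; cpd 5 min RT; FRET pre-read; + RanGTP-RCC1 (0.6 uM Ran, 2 mM GTP, 0.2 uM RCC1); 45 min RT; FRET post-read, ex 430, em 486/530 nm.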
GLA inh pH 4.5 – inhibitors of human alpha-galactosidase A at pH 4.5; P06280; purified enzyme, 4-MU-alpha-Gal fluorescence, pH 4.5; activity change, negative = inhibition, % at 105 µM; 230,000 tested, under 10 active; inconclusive = small, poorly fitted or top-dose-only inhibition, or a rising curve; inactive = flat fitted curve, though single readings scatter; no compound was filed as active;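 also: 0% = full activity with enzyme and -100% = basal without enzyme; dose as in the result columns while the protocol names 77 µM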
Target sequence (P06280 whole entry, looked up): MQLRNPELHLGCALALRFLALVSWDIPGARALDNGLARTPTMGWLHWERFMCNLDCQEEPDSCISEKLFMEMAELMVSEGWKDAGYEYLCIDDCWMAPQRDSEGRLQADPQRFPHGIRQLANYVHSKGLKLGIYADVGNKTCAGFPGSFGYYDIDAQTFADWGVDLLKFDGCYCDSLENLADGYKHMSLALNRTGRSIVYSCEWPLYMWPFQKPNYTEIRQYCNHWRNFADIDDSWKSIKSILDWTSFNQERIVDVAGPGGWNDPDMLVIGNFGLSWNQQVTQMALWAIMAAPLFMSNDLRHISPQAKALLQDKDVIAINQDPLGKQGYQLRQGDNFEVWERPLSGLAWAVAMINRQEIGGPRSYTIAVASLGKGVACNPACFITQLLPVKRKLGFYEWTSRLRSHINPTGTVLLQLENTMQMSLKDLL
Numbers without * were called inactive; u = inconclusive; x = no result given; & = joins results of further samples; [ ] = remark or other dose. These rows are one share of the data. The share of hits here may be higher or lower than overall.

No.	miR-21 FLuc	Rango complex inh	Rango dissoc inh	GLA inh pH 4.5	SMILES
1	-2.9%	-1.2%	u	-1.1	O=C(CSc1nnc(Cc2cccs2)n1-c1ccccc1)NCc1ccc2c(c1)OCO2
2	-0.5%	-1.2%	9.3%	x	Cc1nc(NCCc2ccc(F)cc2)c2nnn(Cc3ccccc3)c2n1
3	1.1%	x	x	-8.2	COc1cc2c(cc1O)[C@H](Cc1ccc(Oc3cc(C[C@@H]4NCCc5cc(OC)c(O)cc54)ccc3O)cc1)NCC2
4	-20.0%	0.2%	-5.0%	-3.7	CCOc1ccc2oc(C(=O)OCC(=O)NC3CC3)c(C)c2c1
5	0.2%	-1.8%	0.0%	x	Cc1ccc(CCNC(=O)C2CCN(S(=O)(=O)c3ccc4nc5c(c(C(=O)O)c4c3)CCCC5)CC2)cc1
6	5.1%	-3.1%	0.7%	4.7	COC(=O)CC1(c2cccc3ccccc23)C(=O)c2ccccc2C1=O
7	-15.4%	-4.6%	-1.0%	x	O=[N+]([O-])c1ccc(N2CCN(c3ccccc3Cl)CC2)cn1
8	-57.5%	-0.7%	-5.9%	1.3	O=C(CSc1nc2ccccc2o1)Nc1ccc(N2CCOCC2)c(Cl)c1
9	-3.3%	-1.3%	-6.4%	x	CCOc1ccc(S(=O)(=O)N2CCN(Cc3ccc4c(c3)OCO4)CC2)cc1Cl
10	x	-1.2%	-8.2%	x	COC(=O)[C@]1(Cc2ccccc2)N[C@H](CN(C)S(=O)(=O)c2ccc(C)cc2)[C@@H]2C(=O)N(Cc3ccccc3)C(=O)[C@@H]21
11	x	0.2%	-3.4%	x	COc1cccc(CC(=O)OCc2csc(CC(=O)Nc3ccccc3C)n2)c1
12	-9.7%	-5.2%	-9.9%	x	COc1ccc(OC)c(NC(=O)CSc2n[nH]c(-c3cccnc3)n2)c1
13	x	3.1%	-6.7%	x	COc1ccc(S(=O)(=O)N2CCCCC2)cc1NC(=O)c1ccc(C)cc1
14	0.2%	-2.1%	-1.2%	x	CNS(=O)(=O)c1cn(CC(=O)N(C)Cc2ccccc2)cc1S(=O)(=O)NC
15	-11.5%	1.3%	2.1%	-13.9	CCNC(=S)NNC(=O)CSc1nc2ccccc2n1C
16	-0.4%&3.4%	1.6%	11.6%	-0.6[21.1 µM]	COC(=O)CSc1ccc2nnc(CCNS(=O)(=O)c3ccccc3)n2n1
17	-52.0%	-5.9%	-9.7%	-16.5	COn1c(-c2ccccc2)nc2ccc(Cl)cc21
18	-2.2%	0.0%	u	-6.0	Cc1cccn2c(=O)c(C=O)c(NCc3ccccc3)nc12
19	-16.4%	u	u	-1.2	N#C/C(=C/c1ccc(-c2ccc(Br)cc2)o1)C(=O)NC1CCCCC1
20	-5.2%	-0.3%	-18.5%	x	CCOc1cc2[nH]c(=S)n(CCCC(=O)NCc3ccccn3)c(=O)c2cc1OCC
21	x	-2.0%	0.3%	x	COc1ccc(NS(=O)(=O)c2cccc(C(=O)NCc3ccccn3)c2)cc1
22	-4.0%	0.3%	2.2%	-8.2	COc1cc(C(Nc2ccc(S(=O)(=O)N3CCC(C)CC3)cc2)C(=O)NCC2CCCO2)cc(OC)c1OC (stereo not given)
23	-3.7%	2.3%	-4.5%	6.9	Cc1ccn(C(=O)c2ccc(NC(=O)CC(C)C)cc2)n1
24	-1.7%	-0.9%	3.6%	5.5	Cc1cc(N2C(=O)C3C4C=CC(C4)C3C2=O)ccc1Br (stereo not given)
25	3.1%	-1.2%	-10.4%	5.7	CC1CN(C2CCCCC2)c2nc3c(c(=O)n(C)c(=O)n3C)n2C1 (stereo not given)
26	-7.4%	-1.5%	0.4%	-1.2	O=c1[nH]c(N2CCCCCC2)nc2ncn(Cc3ccccc3)c12
27	x	6.6%	-22.0%	x	CC(Oc1ccccc1)C(=O)Nc1nc(-c2ccccn2)cs1 (stereo not given)
28	-7.9%	-0.9%	-7.5%	-17.4	NS(=O)(=O)c1ccc(NCc2c(F)cccc2Cl)cc1
29	-3.8%	u	18.4µM*	-0.2	COCCNc1nc2nonc2nc1N1CCCC1c1nccs1 (stereo not given)
30	0.1%	-6.0%	-22.2%	-3.6	Nc1cc(=O)[nH]c(=O)n1Cc1ccco1
31	-25.8%	0.8%	-4.3%	-1.0	CCS(=O)(=O)Nc1ccc(C2=NN(S(C)(=O)=O)C(c3cccs3)C2)cc1 (stereo not given)
32	0.3%	3.4%	-13.1%	10.2	N#Cc1c(C(F)(F)F)cc(-c2ccccc2)nc1SCC(=O)Nc1sc2c(c1C#N)CCC2
33	-1.2%	-1.6%	-19.3%	-6.5	Cc1cc(C)nc(NC(=NCCc2c[nH]c3ccccc23)NC(=O)Nc2ccc(Cl)c(Cl)c2)n1
34	8.4%	1.2%	-22.1%	x	CCOc1ccc(NC(=O)CNC(=O)c2nn(-c3ccc(OC)cc3)c(=O)c3ccccc23)cc1
35	-11.5%	-1.1%	16.9%	2.1	O=C(CNC(=O)c1cccs1)NC1=NCCS1
36	-1.5%	9.0%	-8.3%	-6.5	CCOC(=O)N1CCN(Cc2nc3c(c(=O)n(C)c(=O)n3C)n2Cc2ccccc2C)CC1
37	-4.0%	-1.1%	0.4%	3.2	CN1C(=O)CC(N2CCN(C(c3ccccc3)c3ccccc3)CC2)C1=O (stereo not given)
38	x	0.4%	-14.0%	x	CCN(CC)C(=O)c1cccc(NC(=O)c2ccc3c(=O)n4c(nc3c2)CCC4)c1
39	-8.3%	-0.3%	5.1%	1.0	Cc1ccc(N2CC(C(=O)N/N=C/c3cccc([N+](=O)[O-])c3)CC2=O)cc1 (stereo not given)
40	-6.1%	0.2%	-11.1%	3.7	C/C(=N/NC(=O)CNC(=O)c1ccccc1F)c1ccc2c(c1)CCCC2
41	x	-2.6%	-10.7%	x	O=C(NCC1CCCO1)C(=O)NCC1CCCN1S(=O)(=O)c1ccccc1 (stereo not given)
42	13.2%	-1.0%	-1.5%	-6.4	COc1ccc(Cl)cc1NC(=O)COC(=O)/C=C/c1c(C)nn(C2CCS(=O)(=O)C2)c1Cl (stereo not given)
43	5.4%	-1.8%	-5.2%	x	COC(=O)N1C(=O)[C@](c2ccc(Cl)cc2)(C(C)C)N1C(=O)OC
44	-44.1%	1.6%	9.1%	0.3	CCN(CC)Cc1c(-c2ccccc2)[nH]c2ccc(C)cc2c1=O
45	x	0.9%	-0.6%	x	COc1ccccc1C(C)NS(=O)(=O)c1ccc(Cl)nc1 (stereo not given)
46	-0.2%	-6.8%	6.6%	-4.3	Cc1ccc(C(C)NC(=O)Cn2nc(C)c([N+](=O)[O-])c2C)cc1 (stereo not given)
47	-5.4%	0.4%	9.6%	-9.2	Cc1cc(NC(=O)CSc2nc3ccccc3n2CCC#N)no1
48	2.8%	0.1%	0.2%	5.4	O=C(CN(CCc1ccccc1)C(=O)CNS(=O)(=O)c1ccccc1)NCC1CCCO1 (stereo not given)

Nothing new here: entries from further up.
No.	miR-21 FLuc	Rango complex inh	Rango dissoc inh	GLA inh pH 4.5	SMILES
35	-11.5%	-1.1%	16.9%	2.1	O=C(CNC(=O)c1cccs1)NC1=NCCS1
36	-1.5%	9.0%	-8.3%	-6.5	CCOC(=O)N1CCN(Cc2nc3c(c(=O)n(C)c(=O)n3C)n2Cc2ccccc2C)CC1
37	-4.0%	-1.1%	0.4%	3.2	CN1C(=O)CC(N2CCN(C(c3ccccc3)c3ccccc3)CC2)C1=O (stereo not given)
38	x	0.4%	-14.0%	x	CCN(CC)C(=O)c1cccc(NC(=O)c2ccc3c(=O)n4c(nc3c2)CCC4)c1
39	-8.3%	-0.3%	5.1%	1.0	Cc1ccc(N2CC(C(=O)N/N=C/c3cccc([N+](=O)[O-])c3)CC2=O)cc1 (stereo not given)
40	-6.1%	0.2%	-11.1%	3.7	C/C(=N/NC(=O)CNC(=O)c1ccccc1F)c1ccc2c(c1)CCCC2
41	x	-2.6%	-10.7%	x	O=C(NCC1CCCO1)C(=O)NCC1CCCN1S(=O)(=O)c1ccccc1 (stereo not given)
42	13.2%	-1.0%	-1.5%	-6.4	COc1ccc(Cl)cc1NC(=O)COC(=O)/C=C/c1c(C)nn(C2CCS(=O)(=O)C2)c1Cl (stereo not given)
43	5.4%	-1.8%	-5.2%	x	COC(=O)N1C(=O)[C@](c2ccc(Cl)cc2)(C(C)C)N1C(=O)OC
44	-44.1%	1.6%	9.1%	0.3	CCN(CC)Cc1c(-c2ccccc2)[nH]c2ccc(C)cc2c1=O
45	x	0.9%	-0.6%	x	COc1ccccc1C(C)NS(=O)(=O)c1ccc(Cl)nc1 (stereo not given)
46	-0.2%	-6.8%	6.6%	-4.3	Cc1ccc(C(C)NC(=O)Cn2nc(C)c([N+](=O)[O-])c2C)cc1 (stereo not given)
47	-5.4%	0.4%	9.6%	-9.2	Cc1cc(NC(=O)CSc2nc3ccccc3n2CCC#N)no1
48	2.8%	0.1%	0.2%	5.4	O=C(CN(CCc1ccccc1)C(=O)CNS(=O)(=O)c1ccccc1)NCC1CCCO1 (stereo not given)

More records
No.	miR-21 FLuc	Rango complex inh	Rango dissoc inh	GLA inh pH 4.5	SMILES
49	-42.2%	u	4.7%	7.6	O=C(Nc1nc2ccccc2[nH]1)C12CC3CC(CC(C3)C1)C2
50	2.7%	-2.1%	-10.0%	1.8	Cc1cccc(OCC(=O)NNC(=O)c2ccc([N+](=O)[O-])cc2)c1
51	12.1%	-0.4%	-10.7%	-7.4	CCN1CCN(c2cc(C)c3cc(NC(=S)N4CCOCC4)ccc3n2)CC1
52	-9.7%	6.4%	-1.1%	-1.2	Cc1ccc(S(=O)(=O)N2CCN(CC(=O)N/N=C/c3ccc(C)o3)CC2)cc1
53	-4.2%	0.8%	-15.6%	x	CC(C)(C)SC(=O)C[C@@H]1NS(=O)(=O)OC2CCCCC21 (stereo not given in full)
54	-33.1%	-1.1%	-25.9%	-4.8	Cc1ccc(C(=O)NNC(=O)Cc2cccs2)cc1
55	13.6%	u	u	x	CCOC(=O)N1CCc2[nH]c3ccc(C)cc3c2C1
56	x	2.2%	6.6%	x	CCCN(C(=O)CCOc1ccc(C(C)(C)C)cc1)c1c(N)n(Cc2ccccc2)c(=O)[nH]c1=O
57	-1.1%	0.3%	-0.9%	x	COc1ccc(Cc2nc3ccc(C(=O)N4CCCN(C=O)CC4)cc3o2)cc1
58	-4.3%	0.5%	-10.4%	2.1	CC(=O)Nc1ccc(NC(=O)CSc2nnc(-c3ccc(NS(C)(=O)=O)cc3)n2C)cc1C
59	x	-0.2%	8.8%	x	COc1ccc(C2=NOC(Cn3nc(C(=O)NCc4cccs4)cc3-c3ccccc3)C2)cc1 (stereo not given)
60	1.9%	-1.2%	-9.7%	6.5	O=C(COC(=O)COc1ccc(Br)cc1)Nc1cccnc1Cl
61	x	1.1%	27.3%	x	O=C(COC(=O)c1ccc(OC(F)F)cc1)NCCC1=CCCCC1
62	1.3%	-1.5%	1.6%	-0.7	Cc1cc(Br)ccc1SCC(=O)OCC(=O)Nc1ccccc1C#N
63	-1.0%	-5.1%	-8.7%	6.0	CC(NC(=O)c1cccnc1)C(c1ccccc1)N1CCN(C)CC1 (stereo not given)
64	x	u	5.0%	x	CC(Sc1nnnn1C)C(=O)Nc1ncc(Cl)cc1Cl (stereo not given)
65	-17.9%	-0.4%	-17.3%	1.1	Cc1cc(C)n2ncc(C(=O)NCc3ccccc3)c2n1
66	-5.4%	-3.0%	-4.9%	x	COc1cccc(CN(C(=O)c2cccc(OC)c2)C2CCS(=O)(=O)C2)c1 (stereo not given)
67	-17.7%	-1.6%	-0.7%	1.6	CCCCn1c(NCc2ccc3c(c2)OCO3)nc2ccccc21
68	17.0%	-1.6%	-12.5%	-5.7	c1ccc(CCN2CCN(c3ncnc4c3cnn4-c3ccccc3)CC2)cc1
69	-1.1%	0.1%	-11.2%	4.2	Cc1cc(C(=O)N/N=C\c2ccc(COc3ccc([N+](=O)[O-])cc3)o2)ccc1[N+](=O)[O-]

High-throughput results from PubChem BioAssay.
